Assay outcomes deposited in PubChem BioAssay by several laboratories.
ugtP null kill = growth inhibition of ugtP-null S. aureus, primary screen, RN4220 ugtP deletion, OD600. growth inhibition, % (no concentration beside the values). 16 h; some inactives read as strong as hits. hit rate 0.54% among 330,000;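 active = z-score under -3 and OD600 up to 0.15 on both plates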;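 also: plate controls were untreated wells for no effect and antibiotic for full effect; wells of about 80 µL received 100 nL stock; the first replicate is given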
PrP UTR inh = inhibition of PrP 5' UTR reporter expression | inhibition, % (test concentration not listed) | hit rate 0.35% among 340,000 | cell-based PrP 5' UTR mRNA reporter, plate reader | AID 488862, 2010;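 active = every replicate at 50% or more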;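 also: 0 = median of the neutral control wells; tested in H4 reporter cells; numbers are from one replicate; inactives centre near -14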
RN4220 kill = growth inhibition of S. aureus RN4220, primary screen, OD600; inhibition, % (concentration not given with the values); 16 h; hit rate 0.33% among 330,000; AID 1259311, 2017;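 active = z-score of -3 or lower and OD600 up to 0.18 on both plates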;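 also: plate controls were untreated cells for no effect and reference antibiotic for full effect; stock transfer was 100 nL into about 80 µL; one replicate is shown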
Bead autofluor = compound fluorescence in toxin protease inhibitor counterscreen; compound autofluorescence counterscreen, microsphere flow cytometry; stronger effect = higher value; fluorescence intensity (concentration not given with the values); hit rate 3.1% among 360,000; AID 624483;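 active = at least 3 SD above the mean of all compounds, about 16000 in these data; inconclusive = too few beads counted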;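 also: 100 nL of 1 mM stock went into each well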
BJeLR lethal = MLPCN primary cell-based screen for lethality selective to Ras in HRASV12 cells. BJeLR (HRASV12) viability, CellTiter-Glo ATP luminescence, 48 h; reference of the scale not given here. inhibition, % (test concentration not listed). hit rate 0.17% among 300,000;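 active = replicate mean above 50%; inconclusive = above 50% but judged a plate artefact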;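 also: 50 nL library stock added to about 25 µL; numbers are from one replicate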
Mtb hypoxia inh = PubChem AID 1159583 | fluorescence inhibition, % (no concentration beside the values) | M. tuberculosis hypoxia-regulated fluorescent reporter, fluorescence | hit rate 0.1% among 300,000;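 active = 35 to 45% if threefold the growth effect, above 45% if 1.5-fold the growth effect; inactive = the rest, general growth blockers included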;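 also: wells of about 50 µL received 100 nL stock; 0% = vehicle wells and 100% = reference inhibitor wells; whole bacteria with a GFP reporter of the hypoxia response; strong numbers were not always called active; many hits fall short of the cut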
Mtb hypoxia inh growth = second read-out of Mtb hypoxia inh, no call of its own (marks repeat the call); growth inhibition, %; measured here: M. tuberculosis growth (absorbance);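 0% = vehicle and 100% = reference antibiotic; read after six days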
* hit, by the source's call; ? = inconclusive; . = no result given.

SMILES,Mtb hypoxia inh,ugtP null kill,Mtb hypoxia inh growth,BJeLR lethal,RN4220 kill,PrP UTR inh,Bead autofluor
COCCCN(CC(=O)Nc1ccc(N2CCOCC2)cc1)S(=O)(=O)c1ccc(Cl)cc1,5,0,2,3,-2.2,-22,3915
NC(=O)COc1ccc(C=NNS(=O)(=O)c2ccccc2)cc1,2,2,5,.,-0.8,.,.
O=C(CNC(=O)c1ccccc1)NN=Cc1ccc([N+](=O)[O-])s1,-3,7,9,.,12,.,.
NC(=O)c1c(NC(=O)CSc2nnc(-c3ccco3)n2N)sc2c1CCCC2,.,-17,.,-6,-3.0,-18,2489
COC(=O)c1ccc(NC2(C#N)C(=O)Nc3ccccc32)cc1 (configuration not stated),10,-7,9,2,7.5,-21,8918
Cc1cc(=O)[nH]c(N/N=C/c2ccccc2Cl)n1,.,.,.,-4,.,-2,4311
COc1ccc(-n2c3c(cc(C(=O)NC4CCSC4=O)c2=O)C(=O)CC(C)(C)C3)cc1 (configuration not stated),1,-3,3,10,4.0,-8,12188
COc1ccc(N2C(=O)CCC2=O)c(OC)c1,15,2,12,-10,-0.7,-15,4042
Cc1c([N+](=O)[O-])cc(N2C(=O)C=CC2=O)cc1[N+](=O)[O-],-1,-1,4,.,4.0,-15,3845
COc1ccc(NC(=O)c2ccc3[nH]c(C)c(C)c3c2)cc1,3,1,-3,3,4.6,-19,4200
COCCn1c(SCc2ccccc2F)nc2ccccc2c1=O,5,8,-1,-3,5.7,-17,2269
COc1ccc(C2c3[nH]c4ccccc4c3CCN2CCCn2cccn2)c(C)c1C (configuration not stated),4,1,-1,-5,0.8,-20,4571
Cc1cccc(C(=O)OC2CCOC2=O)c1O (configuration not stated),3,-3,0,-8,-4.0,-24,3669
Cc1onc(-c2ccccc2)c1C(=O)Nc1ccc(S(=O)(=O)N2CCCCC2)cc1,.,3,.,1,0.5,-7,5707
Cn1nnc(NC(=O)c2ccccc2)n1,7,8,11,-9,4.0,-13,2721
CCCC(=O)c1ccc(CP(=O)(OCC)OCC)o1,-7,15,-9,-5,3.0,-23,4016
C=CC[n+]1ccc2ccccc2c1C,11,12,6,-1,3.7,-20,?
COc1ccccc1OCC(=O)Nc1cc2c(cc1C(=O)O)OCCCO2,2,1,2,3,2.1,-11,3528
CCN(CC)CCCNC(=O)c1cn(C)c2ccc(S(=O)(=O)N(C)C3CCCCC3)cc2c1=O,5,-5,-5,4,-1.5,0,4097
O=C(CCc1ccc(S(=O)(=O)NCc2ccccc2)cc1)N1CCN(Cc2ccc3c(c2)OCO3)CC1,2,3,7,0,-1.8,-16,10915

Part of the list above in order of number of heavy atoms, smallest number first.
SMILES,Mtb hypoxia inh,ugtP null kill,Mtb hypoxia inh growth,BJeLR lethal,RN4220 kill,PrP UTR inh,Bead autofluor
C=CC[n+]1ccc2ccccc2c1C,11,12,6,-1,3.7,-20,?
Cn1nnc(NC(=O)c2ccccc2)n1,7,8,11,-9,4.0,-13,2721
COc1ccc(N2C(=O)CCC2=O)c(OC)c1,15,2,12,-10,-0.7,-15,4042
Cc1cc(=O)[nH]c(N/N=C/c2ccccc2Cl)n1,.,.,.,-4,.,-2,4311
CCCC(=O)c1ccc(CP(=O)(OCC)OCC)o1,-7,15,-9,-5,3.0,-23,4016
COc1ccc(NC(=O)c2ccc3[nH]c(C)c(C)c3c2)cc1,3,1,-3,3,4.6,-19,4200
NC(=O)COc1ccc(C=NNS(=O)(=O)c2ccccc2)cc1,2,2,5,.,-0.8,.,.
COc1ccccc1OCC(=O)Nc1cc2c(cc1C(=O)O)OCCCO2,2,1,2,3,2.1,-11,3528
NC(=O)c1c(NC(=O)CSc2nnc(-c3ccco3)n2N)sc2c1CCCC2,.,-17,.,-6,-3.0,-18,2489
COc1ccc(C2c3[nH]c4ccccc4c3CCN2CCCn2cccn2)c(C)c1C (configuration not stated),4,1,-1,-5,0.8,-20,4571
COCCCN(CC(=O)Nc1ccc(N2CCOCC2)cc1)S(=O)(=O)c1ccc(Cl)cc1,5,0,2,3,-2.2,-22,3915
O=C(CCc1ccc(S(=O)(=O)NCc2ccccc2)cc1)N1CCN(Cc2ccc3c(c2)OCO3)CC1,2,3,7,0,-1.8,-16,10915

(next part)
SMILES,Mtb hypoxia inh,ugtP null kill,Mtb hypoxia inh growth,BJeLR lethal,RN4220 kill,PrP UTR inh,Bead autofluor
CCOc1ccc(C(=O)NC2CCN(C(=O)NCc3ccccc3)CC2)cc1,12,4,10,1,1.5,-13,9609
CCCC1CCC(c2ccc(C(=O)NN)cc2)CC1 (configuration not stated),8,98*,2,8,-12,-10,2065
CCC(CC)C(=O)Nc1ccccc1NC(C)=O,12,4,9,5,3.0,-27,6801
c1csc(CNc2nc(-c3cccs3)nc3ccccc23)c1,11,-9,6,13,-9.1,-24,4533
CCOC(=O)N1CCN(CC(O)c2c[nH]c3ccccc23)CC1 (configuration not stated),0,5,5,-16,0.2,-7,3507
O=C1NC[C@H](CC2CCCCC2)N(CC2CCCCC2)C1=O,.,.,.,-10,.,0,3935
CCOc1cc(C(=O)OCC(=O)c2cc(C)n(CC3CCCO3)c2C)ccc1OCC(=O)N1CCOCC1 (configuration not stated),-1,3,8,1,2.8,-33,4330
Clc1ccc(CN2CCC3C=CCc4cccc(c43)C2)cc1 (configuration not stated),2,25,-4,.,4.1,.,.
N#Cc1ccc(CN2CCN(C(=O)CCNS(=O)(=O)c3ccc(F)c(Cl)c3)CC2)cc1,8,6,-3,.,2.2,-35,6449
CC1(C)Cc2ccccc2C(C(Cc2ccccc2)C(N)=O)=N1 (configuration not stated),11,18,4,3,9.8,-11,4538
O=C(O)CCn1c(SCCOc2ccccc2)nc2ccccc21,12,8,10,7,4.2,-32,4065
Cc1cc(C)n(CC(O)COc2c(C)cccc2C)n1 (configuration not stated),8,-6,6,-8,4.4,-16,2519
O=C(NCc1cc([N+](=O)[O-])ccc1O)c1cc(-c2ccncc2)nc2ccccc12,2,1,12,0,5.3,-9,6022
COc1ccccc1NC(=O)CSc1ccc2nnc(-c3cccnc3)n2n1,4,3,5,-5,2.3,5,5527
COc1ccc(-c2noc(CCCC(=O)NC3CCCC3)n2)cc1OC,7,4,4,6,3.4,-14,5997
Cc1nn(C(C)C(=O)NCc2ccccc2F)c(=O)c2nn(-c3ccccc3)c(C)c12 (configuration not stated),4,5,2,0,2.7,-6,5575
O=C(NCc1ccccc1)C(c1ccco1)N(C(=O)c1csnn1)c1ccccc1 (configuration not stated),7,7,2,-3,4.5,-23,3202
Cc1cc(=S)cc(C)n1CCCO,-4,-3,-9,6,1.8,-12,?
CCOc1ccc(S(=O)(=O)NN=C(C)c2ccc(Cl)c(Cl)c2Cl)cc1,7,-10,1,.,3.0,.,.
O=C(Nc1nccs1)c1csc2c1CCCC2,.,-7,.,-5,0.5,-59,5109
COc1cccc(/C=N/NC(=O)c2c(-c3ccccc3)noc2C)c1,.,.,.,-4,.,-9,4283
O=C(NCc1ccc2c(c1)OCO2)C(=O)NCC1CCCO1 (configuration not stated),4,0,4,0,2.7,-39,4706
COc1ccc(CCN(C)C(=O)CSc2ncnc3sccc23)cc1OC,10,6,-1,-1,5.4,-15,4607
CCCc1ccc2oc(C(=O)N(Cc3nccn3C)C(C)C)c(C)c2c1,2,0,13,0,-1.2,-24,5600
O=c1cc(-c2ccccc2F)nc(-c2ccccc2F)o1,4,6,8,2,3.7,-23,2196
CC(CCc1ccccc1)NC(=O)COC(=O)c1ccccc1O (configuration not stated),4,1,5,0,0.0,-23,4338
O=C(N[C@@H](Cc1ccc(O)cc1)C(=O)O)C(c1ccccc1)c1ccccc1,.,.,.,-7,.,1,3928
CCN(CC)S(=O)(=O)c1cccc2c(N(C)C)cccc12,18,3,17,-5,6.4,0,3370
CN(C)c1ccc(C(=O)N2CCNC(=O)C2CC(=O)Nc2ccc(F)cc2)cc1 (configuration not stated),-9,-3,4,-13,-0.8,0,5645
CCCC=NNC(=O)c1ccccc1O,2,17,10,.,12,.,.
CNP1(NC)=NC(C(F)(F)F)=NC(C(F)(F)F)=N1,-1,-3,2,-2,1.7,2,9639
C/C(=C/C=C/[C@@H](C)C(=O)O)[C@H]1CN[C@H](C(=O)O)[C@H]1CC(=O)O,.,-6,.,.,-0.4,5,3903
COc1ccc(CC(=O)NCCc2ccc(Cl)cc2Cl)cc1,5,-2,7,0,0.4,-35,3184
Cc1cccc(-n2c(SCC(=O)Nc3cccc(S(=O)(=O)NC4=NCCCCC4)c3)nc3ccccc3c2=O)c1C,-5,3,-4,-6,8.8,-21,2279
CCOc1ccc2nc(NCCCNS(=O)(=O)c3ccccc3)c(C#N)cc2c1,-4,3,9,1,7.4,-19,6263
Cc1ccc(C2=NS(=O)(=O)N(C)C(C(=O)NCc3ccco3)=C2)cc1,2,-10,12,14,-12,-2,6198
COc1ccc(CN2CCCC(CNC(=O)c3ccc(F)cc3)C2)cc1OC (configuration not stated),4,2,1,9,3.6,-19,3588
CC(C)c1ccc2oc(=O)cc(CN3CCOCC3)c2c1,-4,-5,-6,-3,-1.0,-13,5798
Cc1cc(C(=O)CN2C(=O)NC3(CCCc4ccccc43)C2=O)c(C)n1Cc1cccs1 (configuration not stated),.,-5,.,-6,-5.5,-35,4943
CCN(Cc1ccccc1)S(=O)(=O)c1c(C)n(C)c(=O)n(C)c1=O,2,4,-2,-5,6.8,-11,.
CCOc1ncccc1C(=O)N(CCC(C)C)c1c(N)n(Cc2ccccc2)c(=O)[nH]c1=O,-9,-5,-1,.,-1.0,-2,3067
O=C(/C=C/c1cccc(Br)c1)c1ccc2c(c1)OCO2,.,.,.,-3,.,-24,4535
O=C(COC(=O)c1cc([N+](=O)[O-])ccc1N1CCOCC1)c1ccccc1,-3,4,3,-6,-3.0,-17,5723
CC(C)(C)OC(=O)NCc1ccc(CNC(=O)c2[nH]cnc2C(=O)N[C@@H](Cc2ccccc2)C(=O)OCc2ccccc2)cc1,.,.,.,9,.,-3,2930
O=S(=O)(Cc1nc2ccccc2s1)c1ccccc1,.,1,.,0,4.5,-89,4250
NC(=O)NC(=O)C(c1ccccc1)N1CCN(S(=O)(=O)Cc2ccccc2)CC1 (configuration not stated),-1,5,-8,.,2.6,-16,2732
CCC(=O)Nc1sc2c(c1C(=O)N(C)C)CCCCC2,.,1,.,22,6.3,6,3305
COc1ccc(Br)c(C(=O)OCC(=O)N2CCC(Cc3ccccc3)CC2)c1,-5,0,-3,.,-1.5,5,?
Cc1cc(C)nc(N2CCC(C(=O)Nc3ccc4c(c3)OCO4)CC2)n1,16,2,12,5,2.6,2,8733
CCc1c(C)sc(NC(=O)CCc2ccc(OC)cc2)c1C(N)=O,.,5,.,-5,6.5,-13,2146
c1ccc(-c2nnc(CN3CCC4(CC3)OCCO4)o2)cc1,.,2,.,-5,-1.5,-7,5624
COc1cc(C=NNC(=O)CNC(=O)c2cccc([N+](=O)[O-])c2)ccc1O,16,1,11,.,-4.4,.,.
O=c1[nH]nc(CSCc2ccccc2Cl)[nH]1,5,2,4,3,3.4,-14,10207
COc1ccc(C=NNc2nnc(C)n2N)cc1OC(C)=O,11,14,8,.,-0.1,.,.
O=C(NCCc1c[nH]c2ccccc12)Nc1ccccc1,9,-6,11,-6,4.0,-5,3387
Cc1nc2ccccc2nc1N/N=C/c1ccc(O)cc1O,.,.,.,-4,.,-3,4269
COCCC(=O)N1CCC(Oc2ccc(C(=O)N3CCCCCCC3)cc2)CC1,1,2,1,-10,4.0,1,4363
CCC(=O)N1CCc2cc(S(=O)(=O)N(C)c3ccc(OC)cc3OC)ccc21,-9,-1,1,6,6.8,-7,3988
CCCCn1c(N)c(N(C)C(=O)c2ccccc2Oc2ccccc2)c(=O)[nH]c1=O,-2,-2,5,.,2.9,-2,2842
